# Methyltransferases: Primary Screen for Target Class Profiling of Small Molecule Inhibitors of Methyltransferases. purified enzyme, MTase-Glo SAH luminescence; active compounds read low. calls only at 40 µM. 3.9% of 25,000 active. AID 1745853, 2022; active = -50% or lower on at least one of six enzymes; inconclusive = the cases between; inactive = as a rule above -30% on all six;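 further: enzymes were COMT GAMT GNMT HNMT NNMT and PNMT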
#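 Each enzyme was assayed with SAM and its substrate. SAH formation detected by MTase-Glo luminescence; single-point 40 uM screen[…].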
# Calls only; i = inactive; ? = inconclusive; + = active, no number. On the % scale 0 is the no-effect control and ±100 the full control effect. This is a subset. The share of hits here may be higher or lower than overall.
compound	Methyltransferases
Cc1cc(C)cc(NC(=O)c2cc3n(n2)CC(C)(C(=O)NC2CCCCC2)N(C)C3=O)c1 (centres undefined)	i
O=C(NN1CCCCC1)c1nn(-c2ccc(Cl)cc2Cl)c(-c2ccc(C#Cc3ccc(C(F)(F)F)cc3)s2)c1CNS(=O)(=O)N1CCCC1	i
Cc1cc(C)c(Nc2ccnc(Nc3ccc(C#N)cc3)n2)c(C)c1	?
CCCn1c(=O)c2ccc(C(=O)NCC(C)C)cc2n2c(SCC(=O)c3ccc(C)cc3)nnc12	i
COc1ccc2[nH]c(=O)c(CCC(=O)NC(C)c3cn(C)nc3C)cc2c1 (centres undefined)	i
CN1CCc2cc(NC(=O)Nc3cccnc3)ccc21	i
Cc1cccc(Oc2cnc(=O)[nH]c2)c1	i
O=C1N(Cc2ccccc2F)CCOC12CCN(Cc1ccc(F)cc1F)CC2	i

# Random excerpt: two entries already listed
compound	Methyltransferases
CCCn1c(=O)c2ccc(C(=O)NCC(C)C)cc2n2c(SCC(=O)c3ccc(C)cc3)nnc12	i
O=C(NN1CCCCC1)c1nn(-c2ccc(Cl)cc2Cl)c(-c2ccc(C#Cc3ccc(C(F)(F)F)cc3)s2)c1CNS(=O)(=O)N1CCCC1	i

# The listing continues:
compound	Methyltransferases
CC(C)CN1CCc2[nH]cnc2C12CCN(C(=O)c1n[nH]c3c1CCC3)CC2	i
O=C(Nc1cccc(Br)c1)c1cccc(S(=O)(=O)N2CCCCCC2)c1	?
Cc1ccc(NC(=O)CSc2nnc3n(CC(C)C)c(=O)c4ccc(Cl)cc4n23)c(C)c1	i
CC1CCC(NC(=O)c2cc3n(n2)CC(C)(C(=O)NC2CCCCC2)N(C)C3=O)CC1 (centres undefined)	i
Cc1ccc(-c2coc(-c3ccc(NS(=O)(=O)c4ccc5c(c4)n(C)c(=O)n5C)cc3)n2)c(C)c1	i
C#Cc1cccc(Nc2ncnc3cc(OCCOC)c(OCCOC)cc23)c1	?
COc1cccc(C(=O)Cn2nc3n(CC(C)C)c(=O)c4ccc(C(=O)NC5CCCC5)cc4n3c2=O)c1	i
Cc1ccc(S(=O)(=O)c2nnn3c2nc(NCc2ccc(F)cc2)c2ccccc23)cc1	i
CCOCCCNC(=O)C1(C)Cn2c(ccc2-c2ccco2)C(=O)N1c1ccc(OC)c(OC)c1 (centres undefined)	i
CNC(=O)[C@@H]1CN(C(=O)Cn2nc(C(F)(F)F)cc2C)C[C@H]1CO	i
CC(C)(C)c1cnc([C@@H]2COCCN2C2CCCCC2)[nH]1	i
O=C(C(c1ccccc1)c1ccccc1)N1CCN(CC(O)COc2cccc3ncccc23)CC1 (centres undefined)	?
Brc1cccc(-c2nnn3c2nc(NCc2ccc4c(c2)OCO4)c2ccccc23)c1	i
CC(C)c1nc(N(C)S(C)(=O)=O)nc(-c2ccc(F)cc2)c1/C=C/C(O)CC(O)CC(=O)O (centres undefined)	?
Cc1ccc(CNC(=O)c2sc(=S)n3c2[nH]c(=O)c2cc4c(cc23)OCO4)cc1	i
COc1ccc(N2C(=O)c3cc4occc4n3CC2(C)C(=O)NC2CCCC(C)C2C)cc1OC (centres undefined)	i
Cc1cc2c(cc3n2CC(C)(C(=O)NC2CCCCCCC2)N(Cc2ccc(F)cc2)C3=O)o1 (centres undefined)	i
OC/C=C/C=C/[C@H]1Cc2cc(O)cc(O)c2O1	i
CC(C)(C[C@@](O)(Cc1cc2ccncc2[nH]1)C(F)(F)F)c1cc(F)ccc1O	+
Cc1noc(C)c1S(=O)(=O)N1CCCC(Cc2nncn2C(C)C)C1 (centres undefined)	i
CN(C(=O)C1(N)CC1)C1CCCN(CCCc2ccccc2)C1 (centres undefined)	i
COc1ccc(-c2cc3n(n2)CC(C)(C(=O)NC2CCCCC2)N(c2cccc(Cl)c2)C3=O)cc1 (centres undefined)	i
CC(C)CCn1c(=O)c2ccc(C(=O)NC(C)C)cc2n2c(=O)n(CC(=O)NC(C)C)nc12	i
COCC(=O)Nc1ncncc1-c1noc([C@@H]2CCCN2Cc2cc(OC)c(OC)c(OC)c2)n1	i
CCOc1ccc2cc(-c3nnc(Nc4ccccc4)s3)c(=O)oc2c1	i
COCCN(C)C[C@H]1C[C@@H](CO)CN(C(=O)c2ccc(C)c(Cl)c2)C1	i
CCCn1c(=O)c2ccc(C(=O)NC(C)C)cc2n2c(=O)n(Cc3ccccc3)nc12	i
COC(=O)c1ncn2c1C(=O)N(Cc1ccc(C)cc1)C(C)(C(=O)NCCCOC(C)C)C2 (centres undefined)	i
CCOC(=O)c1cc2n(n1)CC(C)(C(=O)NCc1ccc(C)cc1)N(c1cccc(CC)c1)C2=O (centres undefined)	i
CCc1ccc(S(=O)(=O)c2nnn3c2nc(N2CCCCC2)c2ccccc23)cc1	i
CCN(CC)CCCN1C(=O)c2ccc(-c3ccco3)n2CC1(C)C(=O)NC1CCCCCCC1 (centres undefined)	i
Cc1ccc2nc(NC(=O)Cn3nc4c(cc3=O)CCCCC4)sc2c1	?
Cc1cccc(NC(=O)c2cc3n(n2)CC(C)(C(=O)NC2CCCCC2)N(C)C3=O)c1C (centres undefined)	i
COc1ccc(C2c3cccn3-c3sc4c(c3CN2C(=O)NCc2cccc(OC)c2)CCCC4)cc1 (centres undefined)	i
O=S(=O)(c1ccccc1)c1nnn2c1nc(NCCc1ccccc1)c1cc(Cl)ccc12	i
CCCn1c(=O)c2ccc(C(=O)NC(C)C)cc2n2c(SCC(=O)Nc3ccc(C)c(F)c3)nnc12	i
CCc1ccc(NS(=O)(=O)c2cc3[nH]c(=O)[nH]c3cc2C)cc1	i
CCOc1ccc(N2C(=O)c3cc4sccc4n3CC2(C)C(=O)NC2CCCC(C)C2C)cc1 (centres undefined)	i
CC(C)c1noc(-c2cn(C3CCN(C(=O)COc4ccccc4)CC3)nn2)n1	i
COC(=O)c1ncn2c1C(=O)N(Cc1ccc(OC)cc1)C(C)(C(=O)NCc1ccccc1)C2 (centres undefined)	i
Cc1cccc(N2CCN(CCNC(=O)CCc3nnc4n(C)c(=O)c5ccccc5n34)CC2)c1C	i
CCCn1cc(S(=O)(=O)N2C[C@H](C3CC3)[C@@H](N)C2)cn1	i
COC(=O)c1ncn2c1C(=O)N(C(C)c1ccccc1)C(C)(C(=O)NC1CCCCCC1)C2 (centres undefined)	i
CCCC1c2ccc(C)n2CCN1C(=O)Nc1cc(C)ccc1OC (centres undefined)	i
CN(C)c1ccc(CNC(=O)Cn2c(=O)oc3cc(S(=O)(=O)NCc4ccccc4)ccc32)cc1	i
COc1ccc(C(=O)Cn2nc3n(Cc4ccc(F)cc4)c(=O)c4ccccc4n3c2=O)cc1OC	i
CCC1Oc2ccc(NS(=O)(=O)c3ccc(Cl)cc3)cc2CN(Cc2ccc(F)cc2)C1=O (centres undefined)	+
COc1ccccc1CNC(=O)Cn1c(=O)oc2cc(S(=O)(=O)NCc3ccccc3)ccc21	i

# Sorted by count of non-hydrogen atoms (rising): 5 of the compounds above.
compound	Methyltransferases
CCCn1cc(S(=O)(=O)N2C[C@H](C3CC3)[C@@H](N)C2)cn1	i
CCCC1c2ccc(C)n2CCN1C(=O)Nc1cc(C)ccc1OC (centres undefined)	i
COC(=O)c1ncn2c1C(=O)N(C(C)c1ccccc1)C(C)(C(=O)NC1CCCCCC1)C2 (centres undefined)	i
COc1ccccc1CNC(=O)Cn1c(=O)oc2cc(S(=O)(=O)NCc3ccccc3)ccc21	i
COc1ccc(C(=O)Cn2nc3n(Cc4ccc(F)cc4)c(=O)c4ccccc4n3c2=O)cc1OC	i

# Next compounds.
compound	Methyltransferases
CC1=C(CC(=O)O)c2cc(F)ccc2C1=Cc1ccc(S(C)(=O)=O)cc1	i
CCc1ccc(C2c3cccn3-c3sc4c(c3CN2C(=O)Nc2cc(OC)ccc2OC)CCCC4)cc1 (centres undefined)	i
COc1ccc(N2C(=O)c3cc4ccccc4n3CC2(C)C(=O)NCCC(C)C)cc1 (centres undefined)	i
COC1CCC12CCN(Cc1ccc(C)s1)CC2 (centres undefined)	i
COc1ccccc1CNC(=O)C1(C)Cn2c(cc3ccccc32)C(=O)N1Cc1ccccc1C (centres undefined)	i
Cc1nc2ncnn2c(C)c1CCC(=O)N1C[C@@H](N)C[C@H]1C(=O)NC(C)C	i
CCCn1c(=O)c2cc(Cl)ccc2n2c(SCC(=O)NCc3ccc(Cl)cc3)nnc12	i
COc1ccccc1CN[C@H]1[C@H](O)[C@@H](N2CCN(c3ccccc3OC)CC2)[C@@H]2OC[C@H]1O2	i
O=C(NC1CCCCCC1)c1ccc2c(c1)CC(=O)N2Cc1cccc(F)c1	i
Cc1cc(C#N)c(-c2ccccc2C(=O)N(C(C)C)C(C)C)nc1C	i
Cc1ncc2c(c1CNC(=O)CC(C)c1ccccc1)CCNC2 (centres undefined)	i
CC(C)CC1NC(=O)C(C(C)c2ccccc2)NC(=O)C(C(C)C)NC(=O)C(C)NC(=O)CCCNC(=O)C(Cc2c[nH]c3ccccc23)NC(=O)C(C)NC1=O (centres undefined)	i
Cc1csc(-c2nnc(Nc3ccc(Oc4ncccc4-c4ccnc(N)n4)cc3)c3ccccc23)c1	?
CN1CCN(C(c2ccc(F)cc2)c2sc3nc(-c4ccco4)nn3c2O)CC1 (centres undefined)	?
COc1ccc(/C=C/C(=O)O[C@@H]2[C@@H](O)[C@H](C)O[C@@H](OC3C4C=COC(O[C@@H]5O[C@H](CO)[C@@H](O)[C@H](O)[C@H]5O)C4C4(CO)OC34)[C@@H]2O)cc1OC (some centres undefined)	i
CN1Cc2ncnc(N3CCC(c4ccccc4)CC3)c2CN(c2ccccc2)C1=O	i
COc1ccc(C(=O)N2CCC3(CC2)OCC(C(=O)NC2CC2)N3C(=O)c2cccc(C)c2)cc1 (centres undefined)	i
CCCN1CCN(CCCNC(=O)c2cc3n(n2)CC(C)(C(=O)NC2CCCC2)N(C)C3=O)CC1 (centres undefined)	i
CC(C)Cn1c(=O)c2ccc(C(=O)NC3CCCC3)cc2n2c(=O)n(Cc3ccccc3F)nc12	i
O=C(Cn1ccc2cc(S(=O)(=O)N3CCCCC3)ccc21)NC1CCCCC1	i
CCc1nc(-c2c3n(c(=O)n(CC(=O)NC4CCCC4)c2=O)CCCCC3)no1	i
CC1(C(=O)NC2CCCCCCC2)Cn2c(cc3sccc32)C(=O)N1Cc1ccccc1Cl (centres undefined)	i
COc1c2c(c(C)c3c1C(=O)OC3)O[C@@]1(C)C[C@@H](O)[C@]34O[C@](OC)(CC[C@]3(C)[C@H]1C2)OC4(C)C	i
Cc1ccc(CN2C(=O)CSc3c(c4ccccc4n3C)C2C(=O)NCCC(C)C)cc1 (centres undefined)	i
CCOCCCNC(=O)CCc1nnc2n(Cc3ccc(Cl)cc3)c(=O)c3ccccc3n12	i
C=CC(=O)Nc1cc(Nc2nccc(-c3cn(C)c4ccccc34)n2)c(OC)cc1N(C)CCN(C)C	?
C[C@@H]1C(=O)O[C@H]2CC34[C@H]5C[C@@H](C(C)(C)C)C36[C@@H](OC(=O)[C@@H]6O)O[C@@]4(C(=O)O5)[C@]21O (some centres undefined)	i
Cc1onc(-c2c(Cl)cccc2Cl)c1CC(=O)NCc1ccc(OCC(F)(F)F)nc1	i
COc1cc(CNCCC(C)C)ccc1OCC(O)CN1CCSCC1 (centres undefined)	i
CCCn1c(=O)c2cc(F)ccc2n2c(SCC(=O)Nc3ccccc3OC)nnc12	i
Cc1ccccc1CCN1C(=O)c2ccc(-c3ccco3)n2CC1(C)C(=O)NC1CCCCCCC1 (centres undefined)	i
COC(=O)c1c(CC=C(C)C)c(OC2OC(CO)C(O)C(O)C2O)c2ccccc2c1OC1OC(CO)C(O)C(O)C1O (centres undefined)	i
O=C(O)C1CCCN(CCC=C(c2ccccc2)c2ccccc2)C1 (centres undefined)	i
Cn1ncc(CN2CC[C@@H](c3ccc4c(c3)OCO4)[C@H](O)C2)c1C1CC1	i
OC[C@H]1O[C@@H](OCCc2ccccc2)[C@H](O)[C@@H](O)[C@@H]1O	?
Cn1c(=O)n(C)c2cc(S(=O)(=O)N3CCN(c4cccc(Cl)c4)CC3)ccc21	i
COc1ccc(N(C(=O)c2ccccc2OC)S(=O)(=O)c2ccc3c(c2)n(C)c(=O)n3C)cc1	i
CC1CCN(C(=O)CCc2nnc3n(Cc4ccc(Cl)cc4)c(=O)c4ccccc4n23)CC1	i
O=C(C[C@@H]1CCNC[C@@H]1Cc1cc(CN2CCCCC2)on1)N1CCN(c2ccccc2)CC1	i
CCC(O)CNC(=O)c1cn2cc(-c3ccc(F)cc3)n(CC=C(C)C)c(=O)c2n1 (centres undefined)	i
Cn1c2c(c3ccccc31)C(C(=O)NCc1ccccc1)N(Cc1ccco1)C(=O)CS2 (centres undefined)	i
CCC1CN(C(=O)c2ccc(NCc3cnn(CC)c3)nc2)CCN1C(C)C (centres undefined)	i
CCOc1ccc(N2C(=O)c3cc(C(C)(C)C)nn3CC2(C)C(=O)NCc2ccccc2)cc1 (centres undefined)	i
C=C(C)C1=C[C@@]2(C)C(=CC1=O)CC[C@@H](O)[C@@H]2C	i
CCCCOc1ccccc1-c1cc2n(n1)CC(C)(C(=O)NC1CCCCC1)N(CCC)C2=O (centres undefined)	i
O=C(CSc1ccncc1)N1CCN2C(=O)N(Cc3ccccc3)C(=O)[C@H]2C1	i
Cc1ccc(NC(=O)CSc2nnc3n(CCc4ccccc4)c(=O)c4ccccc4n23)c(C)c1	i
O=C(/C=C/c1ccc(O)c(O)c1)O[C@@H]1[C@@H](O)[C@H](OC2CCCCC2O)O[C@H](CO)[C@H]1O (some centres undefined)	i
CCCN1C(=O)c2c(C(=O)NCc3ccccc3)ncn2CC1(C)C(=O)NCCC(C)C (centres undefined)	i
O=C(CCCc1ccc(F)cc1)N[C@@H]1CCOC[C@H]1Oc1ccccn1	i
